Compound activity: PubChem, several laboratories
PABP FP inh – PABP poly(A) RNA binding inhibitors, primary screen, biochemical, fluorescence polarization, uHTS. AID 2014, 2009. inhibition, % at 35 µM. 290,000 compounds, 1% hits;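 active means 50% or more with normal probe brightness, or confirmed in later tests; inconclusive means above 50% with abnormal brightness, or retests that disagree; inactive means below 50% or failed in later tests; about a fifth of its hits are not listed in these tables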;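 further: calls also rest on retests at 20 µM and on dose response follow-up; controls were probe without protein and protein plus probe with vehicle; some compounds called inactive have numbers as strong as hits; many hits fall short of the cut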
Target sequence (P11940 whole entry, looked up): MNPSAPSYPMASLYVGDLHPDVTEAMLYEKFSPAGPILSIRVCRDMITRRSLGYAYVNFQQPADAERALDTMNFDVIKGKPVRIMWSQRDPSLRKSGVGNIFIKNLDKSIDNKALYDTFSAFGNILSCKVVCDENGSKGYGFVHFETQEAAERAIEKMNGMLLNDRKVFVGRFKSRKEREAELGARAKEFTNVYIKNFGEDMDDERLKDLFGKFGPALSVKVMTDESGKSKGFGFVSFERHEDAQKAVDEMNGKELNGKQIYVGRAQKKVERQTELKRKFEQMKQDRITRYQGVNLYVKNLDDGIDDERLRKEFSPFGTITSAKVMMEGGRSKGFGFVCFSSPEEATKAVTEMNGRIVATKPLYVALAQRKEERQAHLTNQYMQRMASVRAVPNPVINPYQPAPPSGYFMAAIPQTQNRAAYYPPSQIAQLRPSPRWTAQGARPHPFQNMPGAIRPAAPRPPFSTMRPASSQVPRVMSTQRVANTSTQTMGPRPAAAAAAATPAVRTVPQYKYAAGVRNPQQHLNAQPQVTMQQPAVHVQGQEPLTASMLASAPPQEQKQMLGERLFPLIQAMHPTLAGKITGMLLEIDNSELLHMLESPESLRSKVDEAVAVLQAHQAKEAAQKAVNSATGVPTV
eIF4H inh – human eIF4H binding inhibitors, primary screen, translation initiation inhibitor project, biochemical, uHTS, fluorescence polarization; Eukaryotic translation initiation factor 4H (Homo sapiens), Q15056; eIF4H fluorescence polarization binding assay; inhibition, % at 35 µM; 290,000 compounds, 0.94% hits; AID 2012, 2009;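 active means 50% or more with normal probe brightness, or confirmed in later tests; inconclusive means above 50% with abnormal brightness, or retests that disagree; inactive means below 50% or failed in later tests; about a fifth of its hits are not listed in these tables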;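 further: calls also rest on retests at 20 µM and on dose response follow-up; 0% = protein and probe with vehicle and 100% = probe without protein; strong numbers were not always called active; many hits fall short of the cut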
Rce1 inhib – yeast Rce1p protease inhibitors, primary screen, biochemical, fluorescence, cell-free homogeneous; CAAX prenyl protease 2 (Saccharomyces cerevisiae (strain ATCC 204508 / S288c)), Q03530; yeast membranes, quenched prenylated peptide cleavage fluorescence; calls only; 290,000 compounds, 0.27% hits; AID 2563, 2010;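 active means fall in fluorescence gain of 50% or more versus controls, with final raw signal at or below 3038400; inconclusive means same 50% fall but final raw signal above 3038400; inactive means fall in fluorescence gain under 50%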;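 further: plate controls were neutral control wells for no effect and wells lacking membranes for full effect; tested at 10 µM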
Yeast UUG start – modulators of yeast start codon fidelity, primary screen, whole organism, S. cerevisiae, single point, plate reader. S. cerevisiae UUG-firefly luciferase reporter, luminescence/redox ratio. activity score, % at 18.7 µM. 350,000 compounds, 0.13% hits;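 active means replicate mean at a twofold rise or more, about +100% in these data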;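 further: firefly luciferase made from a UUG start codon reports start codon fidelity; reporter light over untreated wells divided by growth signal over untreated wells; some hits fall short of that in this replicate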
HIV Env fusion – inhibitors of HIV-1 Env-driven cell-cell fusion, primary screen, HeLa-JRFL effector, CEM21 target cells, luciferase; inhibition, % at 12.3 µM; 360,000 compounds, 1.1% hits;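 active means mean replicate inhibition score of at least 50 and every replicate individually at or above 50; inconclusive means only one of the two criteria met; inactive means mean below 50 and not all replicates reaching 50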;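 further: 0% = plate neutral controls and 100% = maraviroc near 300 nM; one replicate is shown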
MT1-MMP act inh – blockers of MT1-MMP proenzyme processing, primary screen, HT1080 RFP-PRO-GFP cells, GFP/RFP fluorescence; GFP/RFP ratio change, % at 20 µM; 360,000 compounds, 0.061% hits; Matrix metalloproteinase-14 (Homo sapiens), P50281; GFP/RFP ratio fluorescence, overnight; percent of plate control window, DMSO zero;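 active means GFP/RFP ratio change of at least 30% with cell ATP level not reduced by more than half and red fluorescence within 50% of control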; further: strong numbers were not always called active
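Assay system – RFP-PRO-GFP reporter HT1080 cells · Compound dosing – single dose of 20 µM compound, 1% DMSO final · Incubation – overnight compound exposure at 37 °C · Measure – GFP/RFP fluorescence ratio · Benchmarks – DMSO wells and RFP-L50D-GFP cells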
CSC inhib – cancer stem cell viability inhibitors, primary screen, luminescence; cancer stem cell-like cells viability; inhibition, % at 7.5 µM; 300,000 compounds, 1.1% hits;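 active means mean at 75% or more and at least half the replicates too; inconclusive means mean and replicates disagree; tested in HMLE shEcad cells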;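 further: 0% = median of negative and 100% = median of positive control wells; the first replicate is given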
MT1-MMP act inh RFP – further read-out of MT1-MMP act inh, marked with its call; RFP signal change, %; measured here: RFP expression control read;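 0 = vehicle wells; hits needed this value within 50% of zero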
The depositor's hits bear a star; i = inactive; ? = inconclusive; nt = no result given; & = joins results of further samples; [ ] = another dose, or the depositor's remark.

SMILES	PABP FP inh	eIF4H inh	Rce1 inhib	Yeast UUG start	HIV Env fusion	MT1-MMP act inh	MT1-MMP act inh RFP	CSC inhib
Cc1cc(N2CCN(C)CC2)nc2ccc(NC(=S)N3CCC4(CC3)OCCO4)cc12	11	-6	i	-13	3	4	7	6
CC(=O)Nc1cccc(-c2csc(NCc3ccccc3)n2)c1	9	-3	i	nt	-2	2	-1	-3
C[C@@H]1CN([C@H](C)CO)C(=O)c2cc(NC(=O)Nc3ccc(F)cc3)ccc2O[C@H]1CN(C)C(=O)Nc1ccc(C(F)(F)F)cc1	nt	nt	nt	-13&4	-3[16.7 µM]	7	0	17
CCc1nc(SCC(=O)O)c(C#N)c2c1CCCC2	7	5	i	nt	3	2	2	-6
CCCNC(=O)C1CCN(S(=O)(=O)c2cccc3nonc23)CC1	1	-4	i	nt	19	1	5	-7
Cc1[nH]c(=O)[nH]c(=O)c1C=CC(=O)NC(CO)CS(=O)Cc1ccccc1 (stereo not drawn)	nt	nt	nt	-28	-4	2	5	nt
Cc1cc(C)c2cc(CN(CCN3CCCC3)C(=O)Nc3ccc(F)cc3)c(=O)[nH]c2c1	6	1	i	-7	nt	-1	-1	-3
Nc1nc(Sc2ccc(C(F)(F)F)cc2[N+](=O)[O-])n[nH]1	-5	4	i	-19	-12	0	0	3
O=C1NC(=Nc2ccccc2Cl)SC1(CO)CO	-10	-12	i	-11	-14	0	1	-13
O=C(NN1C(=O)c2ccccc2NC1c1ccccc1OCc1ccccc1)c1ccncc1 (stereo not drawn)	6	0	i	-11	nt	0	-2	-12
O=C(Cc1ccccc1)NCCCNC(=O)Cc1ccccc1	nt	nt	nt	-22	18	-1	3	nt
COc1ccc2c(c1)CCc1c(C(=O)NCc3ccco3)noc1-2	3	-6	i	nt	nt	2	-4	nt
O=C(NCCc1c[nH]c2ccccc12)C(=O)NCC(c1ccco1)N1CCN(c2ccc(F)cc2)CC1 (stereo not drawn)	-10	13	i	nt	-3	0	2	4
COc1cccc(C(=O)NCC2(c3ccc(OC)c(OC)c3)CCCC2)c1	2	-6	i	-3	-24	-3	-5	-19
COCCN1Cc2cc3cc(C)ccc3nc2SC1=Nc1cccc(OC)c1	-2	2	i	nt	18	-6	-4	-3
CCOc1cc(C)c(S(=O)(=O)NC2CCCCC2)cc1C	-3	-3	i	-8	nt	0	-3	-5
Cc1cc2n(n1)C(c1ccc3c(c1)OCO3)Nc1c(C)cccc1-2 (stereo not drawn)	-6	-4	i	-26	-84	4	5	-1
CN1OC[C@@H]2CN(Cc3ccc(Cl)cc3)[C@H](c3cccc(Br)c3)C[C@@H]21	nt	nt	nt	14	46	3	2	nt
Cc1cc(C(=O)COC(=O)C23CC4CC(CC(O)(C4)C2)C3)c(C)n1-c1c(C)n(C)n(-c2ccccc2)c1=O	7	2	i	7	6	2	5	3
Cn1c(N)c(C(=O)COC(=O)CNS(=O)(=O)c2cccc(Cl)c2)c(=O)n(C)c1=O	-1	-6	i	nt	nt	-1	-1	6
CC(C)OCCCN(CC(O)c1ccccc1)CC(O)c1ccccc1 (stereo not drawn)	-16	-5	i	nt	-1	5	0	14
Cc1c(CC(=O)N[C@@H](C)C(=O)O)c(=O)oc2cc3c(cc12)CCC(C)(C)O3	2	-9	?	0	9	2	2	-5
COc1ccc(CN2CCCCCC2)cc1	14	10	i	-13	-8	0	5	1
CCCn1nc(Oc2nc(NC(C)C)nc(N(C)C)n2)ccc1=O	-8	-2	nt	-3	-6	2	4	10
COc1ccc(-n2c(Cc3cc(=O)[nH]c(=O)[nH]3)nnc2SCC(=O)Nc2ccccc2)cc1	13	2	i	-19	5	1	4	2
Cc1cc(C(=O)N/N=C/c2ccc(-c3cccc(Cl)c3Cl)o2)n[nH]1	6	-8	i	-5	-14	0	-1	-13
O=C(O)c1ccc(-c2nnc(-c3cccc(Br)c3)o2)cc1	3	0	i	-22	-35	4	12	-11
COc1ccccc1C(=O)NCCC(=O)Nc1ccc(S(=O)(=O)N2CC(C)CC(C)C2)cc1 (stereo not drawn)	nt	nt	nt	-10	nt	5	-3	4
O=c1oc2ccccc2cc1-c1csc(NN=C2CCCC2)n1	-2	32	i	-17	0	2	3	11
CN(C)c1ccc(CC(=O)N2CCCCC2c2cc(C(=O)Nc3cccc(C#N)c3)no2)cc1 (stereo not drawn)	nt	nt	nt	-9	33	-4	-11	nt
COCCCNC(=S)NNC(=O)c1cc(C2CC2)nc2ccccc12	0	-6	i	-34	-20	-4	0	-3
Cc1cc(C)c(S(=O)(=O)N2CCN(C(=O)c3c(C)noc3C)CC2)c(C)c1	nt	nt	nt	-2	27	-2	-1	-8
CC(C)(C)c1ccc(OCC(O)CS(=O)(=O)c2ccccn2)cc1 (stereo not drawn)	-5	8	i	-7	-81	10	3	nt
Cc1cccc(CSc2ccc3nnc(-c4cccs4)n3n2)c1	-7	16	i	nt	7	3	2	-17
CCOC(=O)c1ccc(NC(=S)N2CCCC(C(=O)OCC)C2)cc1 (stereo not drawn)	5	10	i	-21	9	-2	-1	-9
Cc1ccc(S(=O)(=O)NCCCCCC(=O)Nc2cccc(C)c2)cc1	1	-2	i	-9	nt	6	-1	-9
Cc1ccc(NC(=O)C2=C(C(=O)O)CCCC2)cc1Br	4	0	i	8	0	-2	0	7
CC(C)NC(=O)CN(Cc1ccccc1)S(=O)(=O)c1ccccc1	-5	-10	i	-3	3	0	-3	-16
CSc1ccccc1C(=O)Nc1cccc([N+](=O)[O-])c1	6	7	i	nt	-13	1	2	5
Cc1cc(C(=O)CSc2nc3ccccc3[nH]2)c(C)n1C	7	7	i	nt	-191	5	0	-7
O=C(C(NS(=O)(=O)c1cccs1)c1ccccc1)N1CCN(c2ccccc2F)CC1 (stereo not drawn)	9	17	i	1	-74	1	-2	nt
O=C(Nc1ncn[nH]1)c1ccc(Cl)c(S(=O)(=O)Nc2ccc(Cl)cc2)c1	-10	8	i	nt	10	0	-4	-4
Nn1c(-c2ccccc2)nc2ccccc2c1=O	10	1	i	-17	-24	4	0	-15
O=C(c1cc(Cl)cc(Cl)c1)N1CCC2CC1c1cc(N3CCCCC3)ccc12 (stereo not drawn)	nt	nt	nt	-1	3	-2	-1	nt
NC(=O)COc1ccc(C(=O)/C=C2/C(=O)Nc3ccccc32)cc1	14	-8	i	-10	0	-7	-5	nt
Nc1ncc(Br)cc1S(=O)(=O)NC1CCCCC1	-4	-11	i	-16	-5	4	4	-7
Cc1[nH]c(=O)[nH]c(=O)c1CSc1nnc(CCCCCNC(=O)OC(C)(C)C)o1	1	-2	i	-8	14	5	5	-8
COc1ccc(S(=O)(=O)Nc2ccc3c(c2)CCC3)cc1	-17	-2	i	nt	7	-2	-6	-9
COc1ccc(NC(=O)Nc2cc(F)ccc2C)cc1	-4	7	i	nt	-16	6	-7	19
O=C1C=C(NCc2ccco2)C2(CCCCC2)O1	-9	-9	i	-9	nt	7	2	nt
CC(C)(C)[C@H]1C=C(C(=O)Nc2ccccc2)O[C@@H](OCCCCO)C1	nt	nt	i	-5&-47	-12[16.7 µM]	3	0	-25
COc1ccccc1OCCCCNC(C)(C)C	8	3	i	-35	nt	4	6	-14
CCN1CCN(C(=O)CCS(=O)(=O)c2cc3c(cc2Cl)NC(=O)CO3)CC1	10	6	i	10	14	-2	2	10
CC/C(=C/c1sc2ccccc2[n+]1CC)SC	-14	30	i	nt	-5	-5	2	-4
COc1cccc(/C=C2\SC(=S)N(NC(=O)c3ccncc3)C2=O)c1	20	-8	i	-18	-1	2	5	-10
CCOC(=O)n1c(=O)n(Cc2ccccc2)c2ccccc21	2	-5	i	nt	nt	5	3	-12
Cc1cccc(C(=O)OCC(=O)NCCCc2ccccc2)c1	-7	-5	i	nt	19	5	2	8
O=C(Nc1ccc(F)cc1)C1CCN(c2ncnc3c2nc2n3CCCCC2)CC1	2	-9	i	-14	-3	-2	-11	10
O=C(CCc1nc2ccccc2[nH]1)N1CCc2ccccc2C1	2	6	i	6	-10	6	6	-7
COC(=O)CCC(=O)COc1ccccc1C#N	4	1	i	-8	-39	0	-3	-3

3 records drawn at random from the list so far:
SMILES	PABP FP inh	eIF4H inh	Rce1 inhib	Yeast UUG start	HIV Env fusion	MT1-MMP act inh	MT1-MMP act inh RFP	CSC inhib
Nn1c(-c2ccccc2)nc2ccccc2c1=O	10	1	i	-17	-24	4	0	-15
COc1ccc(NC(=O)Nc2cc(F)ccc2C)cc1	-4	7	i	nt	-16	6	-7	19
NC(=O)COc1ccc(C(=O)/C=C2/C(=O)Nc3ccccc32)cc1	14	-8	i	-10	0	-7	-5	nt

Shown in markdown: part of the list above
| smiles | PABP FP inh | eIF4H inh | Rce1 inhib | Yeast UUG start | HIV Env fusion | MT1-MMP act inh | MT1-MMP act inh RFP | CSC inhib |
| --- | --- | --- | --- | --- | --- | --- | --- | --- |
| Cc1[nH]c(=O)[nH]c(=O)c1CSc1nnc(CCCCCNC(=O)OC(C)(C)C)o1 | 1 | -2 | i | -8 | 14 | 5 | 5 | -8 |
| COc1ccc(S(=O)(=O)Nc2ccc3c(c2)CCC3)cc1 | -17 | -2 | i | nt | 7 | -2 | -6 | -9 |
| COc1ccc(NC(=O)Nc2cc(F)ccc2C)cc1 | -4 | 7 | i | nt | -16 | 6 | -7 | 19 |
| O=C1C=C(NCc2ccco2)C2(CCCCC2)O1 | -9 | -9 | i | -9 | nt | 7 | 2 | nt |
| CC(C)(C)[C@H]1C=C(C(=O)Nc2ccccc2)O[C@@H](OCCCCO)C1 | nt | nt | i | -5&-47 | -12[16.7 µM] | 3 | 0 | -25 |

Next results follow.
SMILES	PABP FP inh	eIF4H inh	Rce1 inhib	Yeast UUG start	HIV Env fusion	MT1-MMP act inh	MT1-MMP act inh RFP	CSC inhib
CCOc1ccc(-c2cc(N)n(S(=O)(=O)c3ccc(OC)cc3)n2)cc1	-6	2	i	-14	7	0	-4	7
Cc1ccc([C@H]2C[C@@H](n3cc(-c4ccc(F)cc4)nn3)[C@H](O)CN2CC2CCCCC2)cc1	nt	nt	nt	-6	2	-8	-12	nt
COc1cc2c(cc1NS(=O)(=O)N1CCCC1)oc1ccccc12	8	1	i	16	21	14	-1	nt
CCCCCCOC(=O)c1ccc(N)cc1	4	3	i	10	-23	-3	-3	68
COc1ccc(N2CCC(CNC(=S)Nc3c(C)cc(C)cc3C)C2)cc1 (stereo not drawn)	4	-4	i	nt	-7	-9	-1	3
CCOC(=O)Cc1cc(=O)c2cc(C)ccc2[nH]1	13	4	i	-5	-11	-3	2	-7

The list is partial; the hit share may differ from the screen's.
